Source: PubChem
H5N1 CPE – MDCK cell protection from H5N1 avian flu; cytopathic effect, luminescence, 72 h; stronger effect = higher value; no value below 0 was filed and about half of the inactive calls have no number; reference of the scale not given here; inhibition, % at 50 µM; actives 0.07% (n = 96,000); in the data active means inhibition above about 25%
* = called active by the depositor; i = inactive. Not all compounds are listed; count on the stated rates, not on these rows.

SMILES	H5N1 CPE
CCOC(=O)c1ccc(NC(=O)Nc2ccc3c4c(cccc24)C(=O)N3CC)cc1	0.1
COC(=O)C1=C(C)N(C)C(C)=C(C(=O)OC)C1c1ccc(F)c(Br)c1	0.6
COc1cc(C(=O)Nc2ccc(-n3cnnn3)c(C)c2)cc(OC)c1OC	i
CCOC(=O)N1CCN(C(=O)CN(c2cccc(OC)c2)S(C)(=O)=O)CC1	2.0
CC(=O)N1CCC(=O)N(C(C)C)c2ccccc21	0.4
COc1c(Cl)cnn(-c2ccc(C)cc2)c1=O	i
CCOC(=O)C(CC)Sc1ncnc2nc[nH]c12 (stereo not drawn)	i
Cc1ccc(S(=O)(=O)Cn2nnnc2C(c2ccccn2)N2CCN(c3ccccc3)CC2)cc1 (stereo not drawn)	i
COc1ccc(NC(=S)NCc2ccco2)cc1	0.3
CN(CC(=O)NC1CCCCC1)S(=O)(=O)c1ccc(Cl)cc1	i
O=C(O)CCSCc1ccccc1F	0.1
CCCOc1ccc(C(=O)N2CCN(c3ccc(NC(=O)CC)cc3Cl)CC2)cc1	11.5
O=C(c1ccco1)N1CCN(CC2CC3C=CC2C3)CC1 (stereo not drawn)	i
Cc1ccnc(N(C(=O)c2cccs2)C(=O)c2cccs2)c1	1.8
O=C(Nc1cnc2ccccn2c1=O)c1ccc(F)cc1	0.2
CCC(=O)NCCc1nc2cc(NC(=O)c3ccc(OC)cc3)ccc2n1C	1.5
CC(C)c1cc(C(=O)NCc2ccco2)no1	4.1
Cc1ccccc1-c1nc(CS(=O)(=O)CC(=O)N(C)C2CCCCC2)c(C)o1	0.4
N#C/C(=C\c1cccc(Cl)c1)c1n[nH]c(Cn2cncn2)n1	i
CCOC(=O)C1CCCN(c2c(NCc3ccco3)c(=O)c2=O)C1 (stereo not drawn)	3.1

2 entries picked at random from the list so far:
SMILES	H5N1 CPE
N#C/C(=C\c1cccc(Cl)c1)c1n[nH]c(Cn2cncn2)n1	i
Cc1ccccc1-c1nc(CS(=O)(=O)CC(=O)N(C)C2CCCCC2)c(C)o1	0.4

(list continues)
SMILES	H5N1 CPE
Nc1nncn1C(=O)CCCOc1ccccc1	i
COCC(C)NC(=O)CSc1nc(-c2ccccc2)c(-c2ccccc2)o1 (stereo not drawn)	0.2
CCOC(=O)/C=C1\SCC(=O)N1CC(=O)NC(C)C	0.1
CC1=NN(c2nc(-c3ccccc3)cs2)C(=O)C1	i
Cc1ccc(CNC(=O)/C=C/c2ccccc2Cl)cc1	i
O=C(COC(=O)CC1CCCC1)Nc1cc2c(cc1Cl)C(=O)c1ccccc1C2=O	0.6
O=C(CN1CCOc2ccccc21)NCc1ccco1	2.3
CC(C)n1c(SCC(=O)Nc2ccccc2N2CCCCC2)nc2c1c(=O)n(C)c(=O)n2C	0.9
Cc1cc(C)n(Cc2ccccc2Cl)n1	i
Cc1cc(NC(=O)CSc2ccc3c(c2)OCCO3)no1	i
CC(=O)C1=C(C)NC(SCC(=O)c2ccc(F)cc2)=C(C#N)C1c1ccco1 (stereo not drawn)	0.3
C=C(C)C1Cc2c(C)nn(-c3ccccn3)c2C1 (stereo not drawn)	i
O=C(Nc1cccnc1)c1cccc(S(=O)(=O)N2CCOCC2)c1	0.5
COc1cc2cc(CN(C(=O)Nc3ccccc3)C3CCCC3)c(=O)[nH]c2cc1OC	i
CCOc1ccc(NC(=O)N2CC=C(n3c(=O)[nH]c4ccccc43)CC2)cc1	0.0
CCOc1ccc2nc(SC3CC(=O)N(c4ccccc4)C3=O)sc2c1 (stereo not drawn)	0.0
CCOc1nc(C)ccc1-c1noc(-c2ccncc2)n1	0.5
O=C(NNc1ccccn1)C(=O)NNS(=O)(=O)c1ccc(Cl)cc1	0.8
COCC(=O)NC1CCN(CC(=O)Nc2ccc(OC)cc2[N+](=O)[O-])CC1	i
CCOC(=O)Cn1cc(C(=O)c2ccccc2F)c2ccccc21	i
CNC(=O)c1csc(-c2ccccc2)n1	i
Clc1ccc(NNc2ccnc3cc(Cl)ccc23)cc1	10.1
O=C(c1cccc(F)c1)N1CCN(C(=O)c2cc3ncc(Br)cn3n2)CC1	1.5
Cc1cc(-n2c(=O)c(C#N)cc3c(=O)n4cccc(C)c4nc32)no1	2.2
CCC(Sc1nc(=O)cc(N)n1-c1ccccc1)C(=O)Nc1cc(C)on1 (stereo not drawn)	0.5
Cc1cnn(-c2ccc3nnc(-c4ccc(Cl)cc4)n3n2)c1	1.0
O=C(Cc1cccs1)NCc1cccs1	0.7
OCCN1CCN(c2ncnc3ccc(Br)cc23)CC1	2.7
CCn1c(COc2ccccc2C)nnc1SCC(=O)CC(=O)Nc1ccccc1	i
COC(=O)c1ccccc1NC(=O)N1CCN(C/C=C/c2ccccc2)CC1	i
COc1ccc(C2CC(O)(C(C)(C)O)NO2)cc1 (stereo not drawn)	0.1
COc1ccc(C2(O)CCN(CCCCOc3ccccc3)CC2)cc1	i
COc1ccc(OCC(O)Cn2c(Br)nc3c2c(=O)[nH]c(=O)n3C)cc1 (stereo not drawn)	1.4
COc1ccc(NC(=O)C2CC(=O)N(c3cccc(C)c3C)C2)cc1 (stereo not drawn)	i
COc1ccc(NC(=O)C(NC(=O)CNC(C)=O)c2ccc(C)cc2)cc1 (stereo not drawn)	i
Cc1sc(NC(=O)c2ccco2)c(C(c2ccncc2)N2CCOCC2)c1C (stereo not drawn)	0.6
CN(C)c1ccc(P(=O)(OCc2ccccc2)C(O)c2cccnc2)cc1 (stereo not drawn)	i
COc1ccc(CNC(=O)c2csc(Cc3ccc(OC)cc3)n2)cc1	i
C=CCn1c(N)c(C(=O)NCC2CCCO2)c2nc3ccccc3nc21 (stereo not drawn)	i
C/C(=C\C(=O)c1ccc(Br)cc1)NCc1ccc(C)cc1	0.2
CCCC(=O)n1nc(-c2ccco2)nc1N	i
Cc1ccc(C)n1NC(=O)c1ccccc1Cl	0.1
O=C1/C(=C/c2ccc([N+](=O)[O-])cc2)C=C(c2ccccc2)N1c1ccccc1	i
CC(C)(C)C(=O)O/N=C1/C(=O)N(c2ccccc2)c2ccccc21	2.4
COc1ccc(CNC(=O)CSCc2cnn(-c3ccccc3)c2-n2cccc2)cc1	i
COc1ccc(-n2c(Cc3cc(=O)[nH]c(=O)[nH]3)nnc2SCc2ccccc2)cc1	2.4
CN(C)CCOc1ccccc1C(C)(C)C	i
Cc1nnc(NC(=O)Nc2cccc(Cl)c2)s1	0.6
Cc1nn(C(=O)c2cccnc2)c(C)c1C	i
COC(=O)c1cn(C(=O)OC)c2ccccc12	i
O=C(NC1CCCCC1)NC1CC2CCCC(C1)N2C1CCCC1 (stereo not drawn)	0.3
COc1cc2c(cc1OC)CN(CC(=O)Nc1ccc(C#N)cc1)CC2	0.2
CCCCn1c(=O)c(C(=O)OCC)c(O)c2ccccc21	i
O=C(O)c1ccc(NS(=O)(=O)c2cc(C(=O)O)ccc2Br)cc1	0.1
CCOC(=O)COc1cc(OCC(=O)OCC)c2c(=O)cc(-c3ccccc3)oc2c1	0.2
O=C(NCc1ccccc1Cl)C1CCCN(S(=O)(=O)c2cnc[nH]2)C1 (stereo not drawn)	i
CCOC(=O)CSc1n[nH]c(-c2ccco2)n1	0.6
COC(=O)C(O)(c1cn(C)c2ccccc12)C(F)(F)F (stereo not drawn)	i
Cc1onc(-c2c(F)cccc2Cl)c1C(=O)Nc1nnc(C2CC2)s1	i
COCCn1c(=O)[nH]c2cc(C(=O)NCC3CCCO3)ccc2c1=O (stereo not drawn)	i
Carrying on.
SMILES	H5N1 CPE
CCCCOc1ccc(CN2CCC(O)CC2)cc1	i
CCN(CC)S(=O)(=O)c1ccccc1/C=N\O	0.3
O=C(CN1C(=O)COc2ccccc21)N1CCN(c2ccccc2F)CC1	0.1
O=C1c2ccccc2C(=O)N1CCc1csc(-c2cccc(Cl)c2)n1	i
Cc1c(-c2ccc(F)cc2)nc(N)c(C#N)c1-c1ccco1	0.1
Cc1ccc(S(=O)(=O)NC(C(=O)OCC(=O)NC2CCS(=O)(=O)C2)C(C)C)cc1 (stereo not drawn)	0.7
CCOC(=O)C1CCN(C(=O)c2oc3ccc(S(=O)(=O)N4CCCCCC4)cc3c2C)CC1	3.0
Cc1c(NC(=O)c2cc(-c3ccccc3)on2)c(=O)n(-c2ccccc2)n1C	i
O=C(CC1NC2CCCCC2NC1=O)Nc1cccc(C(F)(F)F)c1 (stereo not drawn)	i
CN1CCN(c2nc(-c3ccco3)cc(C(F)(F)F)n2)CC1	i
CC(C)Oc1ccc(Cc2cnc(N)nc2N)cc1	0.5
O=C(CCCN1C(=O)CSc2ncccc21)N1CCN(Cc2ccccc2)CC1	2.3
CCOc1ccc(C2CC(c3ccc(OC)c(OC)c3)n3nc(N)nc3N2)cc1 (stereo not drawn)	i
CC(C)c1nc(=S)c2ccccc2[nH]1	0.8
Cc1cccc(N2CCN(C(=O)c3ccc4ncsc4c3)CC2)c1C	i
O=C(CSc1nc2ccccc2o1)N1CCN(c2ccccc2)CC1	i
CCc1cc2c(=O)c(Oc3ccccc3)c(C)oc2cc1O	i
COc1cccc(-c2nnc(SCC(=O)Nc3ccc(OC)c(OC)c3)n2N)c1	i
O=C(NC1CCCCC1)N1CCC(c2nc(-c3ccc(S(=O)(=O)N4CCCC4)cc3)no2)CC1	i
Cc1ccc2cc(CCNC(=O)C(C)(C)C)c(=O)[nH]c2c1	0.3
Cc1[nH]c(=O)[nH]c(=O)c1S(=O)(=O)N1CCN(c2ccccc2F)CC1	i
CC1CCN(C(=O)CSc2nnc(CN3CCOCC3)n2-c2ccccc2)CC1	0.7
CCSC1=C(C#N)C2(CCCC2)C(C#N)=C(N)N1	i
O=S(=O)(c1ccccc1)N1CCN(c2cc(-c3ccccc3)nc3ncnn23)CC1	1.8
Cc1cc(=O)oc2cc(OCC(=O)OCC(=O)NCc3ccc4c(c3)OCO4)ccc12	0.2
c1ccc(CN2CCN(c3ncnc4nc[nH]c34)CC2)cc1	i
CC(=O)C1=C(C)Nc2cc(C(F)(F)F)ccc2S1	0.6
O=C(NCCOc1ccc(Cl)cc1)C1CC(=O)N(c2ccc(F)cc2)C1 (stereo not drawn)	0.3
Cn1cccc1C(=O)Nc1nccs1	0.2
CCOc1ccc(NC(=O)c2cnsn2)cc1	i
Cc1ccc(CC(=O)Nc2nc3ccccc3[nH]2)cc1C	i
CCOC(=O)c1cn(CC)c2ccc(Br)cc2c1=O	0.1
Cc1ccc(C(=O)Nc2ccc3nc(C)sc3c2)s1	0.2
COc1ccc(CSCC(=O)N/N=C/c2ccc(OCC(=O)N3CCCCC3)cc2)cc1	0.6
O=C(CN(Cc1ccco1)C(=O)CNS(=O)(=O)c1ccccc1)NCc1ccc(F)cc1	1.1
COc1ccc(NC(=O)C2(N(CC(C)C)C(=O)Cn3nnnc3N)CCCCC2)cc1	0.1
Cc1cc(C)c(O)c(-c2cc(C(=O)NCc3ccccc3)[nH]n2)c1	0.8
N#CCSc1nc2c(c(C3CC=CCC3)c1C#N)CCC2 (stereo not drawn)	i
CCOC(=O)N1CCN(C(=O)c2cn(C)c3ccc(S(=O)(=O)N4CCCC4)cc3c2=O)CC1	1.5
CCC(=O)NS(=O)(=O)c1cccnc1Nc1ccccc1Cl	0.4
CCOC(=O)c1ccc(-n2cncn2)nc1	0.1
CC1=CC(C)(C)N(C(=O)CSc2nnc(-c3ccc(C)cc3)o2)c2ccc(C)cc21	i
CCn1c2ccccc2c2cc(NC(=O)CSc3nnc(-c4cccc(OC)c4)n3N)ccc21	i
Cc1ccc(-c2nnn(CC(=O)NC3CCCc4ccccc43)n2)cc1 (stereo not drawn)	0.3
Cc1ccc(-c2nc3ccccc3[nH]2)cc1NC(=O)/C=C/c1ccco1	2.1
O=C(Nc1ccc2c(c1)OCO2)C1CCCN(S(=O)(=O)c2cccs2)C1 (stereo not drawn)	0.3
CCN1C(=O)CS/C1=C(\C#N)S(=O)(=O)c1ccccc1	i
COC(=O)c1ccc(NC(=O)CSc2nnc(C)n2-c2ccccc2)cc1	0.7
FC(F)(F)c1ccc(N2CCOCC2)c(Nc2nc3ccccc3n3cnnc23)c1	i
COc1ccc(C(C)=O)c2c1OCCO2	0.5
CC1(C)CC(=O)C=C(NCCc2ccc(S(N)(=O)=O)cc2)C1	1.2
COc1cccc(C(=O)Nc2ccc(C)cc2)c1	i
N#Cc1ccccc1CSc1nc2ncc(Br)cc2[nH]1	0.2
Cc1cccc(N/C(N)=N/c2nc3c(c(=O)[nH]2)CCCC3)c1	0.2
COc1ccc(C(c2nnnn2CCc2ccccc2)N2CCN(C3CCCC3)CC2)cc1 (stereo not drawn)	0.4
COc1ccc(C2C(C#N)=C(N)OC3=C2C(=O)CC(C)(C)C3)c(OC)c1OC (stereo not drawn)	i
Cc1cc(C(F)(F)F)nn1CC(=O)N1CCOCC1	0.9
CCOC(=O)C1(S(=O)(=O)c2ccc(Cl)cc2)CCN(Cc2ccc(Cl)cc2)CC1	0.1

Among those listed so far, 17 contain an aryl thioether with sulfur outside any ring:
SMILES	H5N1 CPE
CCOC(=O)C(CC)Sc1ncnc2nc[nH]c12 (stereo not drawn)	i
COCC(C)NC(=O)CSc1nc(-c2ccccc2)c(-c2ccccc2)o1 (stereo not drawn)	0.2
CC(C)n1c(SCC(=O)Nc2ccccc2N2CCCCC2)nc2c1c(=O)n(C)c(=O)n2C	0.9
Cc1cc(NC(=O)CSc2ccc3c(c2)OCCO3)no1	i
CCOc1ccc2nc(SC3CC(=O)N(c4ccccc4)C3=O)sc2c1 (stereo not drawn)	0.0
CCC(Sc1nc(=O)cc(N)n1-c1ccccc1)C(=O)Nc1cc(C)on1 (stereo not drawn)	0.5
CCn1c(COc2ccccc2C)nnc1SCC(=O)CC(=O)Nc1ccccc1	i
COc1ccc(-n2c(Cc3cc(=O)[nH]c(=O)[nH]3)nnc2SCc2ccccc2)cc1	2.4
CCOC(=O)CSc1n[nH]c(-c2ccco2)n1	0.6
O=C(CSc1nc2ccccc2o1)N1CCN(c2ccccc2)CC1	i
COc1cccc(-c2nnc(SCC(=O)Nc3ccc(OC)c(OC)c3)n2N)c1	i
CC1CCN(C(=O)CSc2nnc(CN3CCOCC3)n2-c2ccccc2)CC1	0.7
N#CCSc1nc2c(c(C3CC=CCC3)c1C#N)CCC2 (stereo not drawn)	i
CC1=CC(C)(C)N(C(=O)CSc2nnc(-c3ccc(C)cc3)o2)c2ccc(C)cc21	i
CCn1c2ccccc2c2cc(NC(=O)CSc3nnc(-c4cccc(OC)c4)n3N)ccc21	i
COC(=O)c1ccc(NC(=O)CSc2nnc(C)n2-c2ccccc2)cc1	0.7
N#Cc1ccccc1CSc1nc2ncc(Br)cc2[nH]1	0.2
